Source: PubChem (National Center for Advancing Translational Sciences (NCATS))
D2 ag: human D2 receptor agonism in beta-arrestin assay. DiscoveRx PathHunter D2 beta-arrestin, luminescence, 90 min; 100% = 57 uM dopamine signal. activation, % (test concentration not listed). AID 624465. P14416. hit rate 0.084% among 360,000; in the data active = activation above about 40%; inconclusive = about 15% to 40%; inactive = below about 15%; also: compound concentration not given in the record; the text of the record calls up to 30% inactive
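DiscoveRx PathHunter D2 beta-arrestin cells (2,100/well) attached overnight, then compound-stimulated 90 min at 37 C in HBSS/10 mM HEPES/0.1% Tween-20 buffer; beta-galactosidase complementation read by luminescence after 1 h at ambient temperature. Dopamine 57 uM final (EC100) as control.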
Six1-Eya2 blk: Six1/Eya2 interaction inhibition; Q15475+O00167; AlphaScreen GST-Six1/His-Eya2 binding, biochemical; active compounds read low; control for the full effect not named in the record; activity change, % (concentration not given with the values); hit rate 0.56% among 360,000; AID 651725; in the data active = activity change below about -65%; inconclusive = about -30% to -65%; inactive = above about -30%; also: % is scaled to controls: 0 for no effect and ±100 for the full control effect
Target sequence (O00167 whole entry, looked up): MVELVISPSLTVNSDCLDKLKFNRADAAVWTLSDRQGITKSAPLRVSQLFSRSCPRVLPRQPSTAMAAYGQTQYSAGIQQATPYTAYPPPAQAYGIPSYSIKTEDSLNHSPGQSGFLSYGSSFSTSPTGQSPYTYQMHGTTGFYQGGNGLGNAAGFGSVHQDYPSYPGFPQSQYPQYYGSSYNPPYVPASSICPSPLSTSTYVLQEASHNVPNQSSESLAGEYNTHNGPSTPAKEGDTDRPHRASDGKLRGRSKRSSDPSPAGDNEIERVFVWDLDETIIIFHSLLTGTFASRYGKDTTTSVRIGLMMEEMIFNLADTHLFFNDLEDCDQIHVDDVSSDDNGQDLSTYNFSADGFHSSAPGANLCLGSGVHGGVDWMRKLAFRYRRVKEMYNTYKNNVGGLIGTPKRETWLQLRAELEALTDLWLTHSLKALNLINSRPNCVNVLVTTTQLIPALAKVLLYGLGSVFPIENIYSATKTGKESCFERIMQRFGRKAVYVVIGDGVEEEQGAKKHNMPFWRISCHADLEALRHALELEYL
Target sequence (Q15475 whole entry, looked up): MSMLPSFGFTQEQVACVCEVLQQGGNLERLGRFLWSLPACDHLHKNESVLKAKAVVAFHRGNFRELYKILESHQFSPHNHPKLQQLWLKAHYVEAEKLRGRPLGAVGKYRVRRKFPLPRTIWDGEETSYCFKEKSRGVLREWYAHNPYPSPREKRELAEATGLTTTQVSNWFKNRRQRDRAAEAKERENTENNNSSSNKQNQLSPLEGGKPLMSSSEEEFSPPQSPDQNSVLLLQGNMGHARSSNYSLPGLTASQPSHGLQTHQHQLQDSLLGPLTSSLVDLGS
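Six1/Eya2 binding was read as AlphaScreen signal after compounds were pinned into GST-Six1 plus His-tagged Eya2 (5X stock 250/500 nM) in pH 8.0 Tris/NaCl/TCEP buffer, beads added, then incubated 1 h, 37 C, dark.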
CtBP-E1A inh: inhibitors of CtBP/E1A interaction | activity change, % (no concentration beside the values) | AlphaScreen GST-E1A/His-CtBP binding, 1536-well; active compounds read low; control for the full effect not named in the record | hit rate 0.49% among 340,000; in the data active means activity change below about -65%; inconclusive means about -30% to -65%; inactive means above about -30%; also: % is scaled to controls: 0 for no effect and ±100 for the full control effect
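Protein mix (5X: 125 nM each GST-E1A, His-CtBP) was incubated with pinned compound 2 h at 37 deg C in dark, in 50 mM Tris pH 8.0 buffer with 300 mM NaCl. Glutathione donor and nickel acceptor beads followed; AlphaScreen signal read after 1 h.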
PINK1 modulator: changes PINK1 expression; PINK1 immunofluorescence, high-content cytometry, 24 h; Potency, µM (titrated, usually from 76.6 µM), inactives show top-dose activation (PINK1 increase), actives largely listed as activators; hit rate 0.2% among 410,000; AID 624263; active = well fitted activation curve with a large enough effect; inconclusive = small, poorly fitted or top-dose-only effect; inactive = flat fitted curve, though single readings scatter; cell line not stated here;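 also: potency is read from the fitted curve at half-maximal effect; % of control where 0% means no effect; nearly all actives have a fitted effect of over 65% in size; a mitochondrial uncoupler was the plate control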
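Stable cell line, 250 cells/well, 12 h attachment; compounds pinned at 5 concentrations, 24 h; CCCP control. Fixed with nuclear dye, primary antibodies 12 h at 10 degrees C, secondary plus cell stain; laser-scanning cytometer read.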
TRPML1 agonist: agonists of human TRPML1 channel | Q9GZU1 | TRPML1-expressing cells, Ca2+ dye fluorescence, FDSS; host cell line not named in the record; reference of the full effect not given here | activation, % (test concentration not listed) | hit rate 0.12% among 410,000; in the data active = activation above about 50%; inconclusive = about 30% to 50%; inactive = below about 30%; also: 0% is about no effect; the text of the record puts the active cut at 80%
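Tet-induced TRPML1-DL cells, 1,500 per well, cultured overnight, were loaded with a no-wash Ca2+ dye for 45–90 min. Calcium fluorescence was recorded on the FDSS for 110 s after compound addition, before the EC80 agonist (4 uM 54-4) was added.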
TRPML1 blocker: blocks the human TRPML1 channel; activity change, negative = inhibition, % (no concentration beside the values); TRPML1-inducible cells, Ca2+ dye fluorescence, FDSS; active compounds read low; inhibition of EC80 agonist-evoked calcium signal; Q9GZU1; hit rate 0.02% among 390,000; in the data active means activity change below about -50%; inconclusive means about -30% to -50%; inactive means above about -30%;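 also: stimulus is agonist 54-4 at its EC80 concentration; % is scaled to controls: 0 for no effect and ±100 for the full control effect; compound concentration not given in the record; the text of the record puts the active cut at -80%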
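Tet-induced TRPML1-DL cells loaded with Ca8 no-wash calcium dye were read kinetically on FDSS. Compound addition was followed by EC80 agonist 54-4 (4 uM final); inhibition was read over 110 s.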
Starred values were filed as active, the others as inactive; ? = inconclusive; . = not tested or not shown; & = joins results of further samples; [ ] = remark or other dose.

Screens in order – D2 ag, Six1-Eya2 blk, CtBP-E1A inh, PINK1 modulator, TRPML1 agonist, TRPML1 blocker
> O=C(Nc1cccc(C(=O)N2CCCCC2)c1)c1ccc(Cl)cc1
→ -0.7, -6, -1, 2.7%, 1.2, -8
> CCOC(=O)c1c(S(=O)(=O)NCCCc2ccco2)c(C)n(C)c1C
→ -4.3, -10, -10, 1.3%, -1.1, 41
> CCCn1c(SCc2nc(-c3cc(OC)ccc3OC)no2)nnc1-c1ccc(Cl)cc1
→ ., ., ., -0.5%, 3.8, 38
> COc1ccc(C2c3c(n(C)c4ccccc34)C(=O)N2CC(=O)Nc2ccc(F)cc2)cc1 (stereo unspecified)
→ ., ., ., 6.1%, 1.1, 3
> O=C(NCc1ccccc1)C1=C[C@@H](C2CC2)C[C@@H](OCc2ccc(CO)cc2)O1
→ 3.5, 2, 0, 0.7%, -1.2, -2
> COc1ccc(C2C(C(=O)NCc3ccccn3)c3cc(OC)c(OC)cc3C(=O)N2C)cc1 (stereo unspecified)
→ -1.9, -6, -10, 0.3%, -0.6, -1
> CCCOc1ccccc1C(=O)N(Cc1ccco1)C1CCS(=O)(=O)C1 (stereo unspecified)
→ -2.3, 0, 2, -0.9%, -0.7, 7
> O=C1C2CC=CCC2C(=O)N1c1nccs1 (stereo unspecified)
→ -6.5, 8, 17, -4.7%, 0.2, -6
> O=C(Nc1ccccc1)c1cc2ccccc2[nH]1
→ -4.1, 9, 6, -0.7%, -0.6, 26
> CCCCn1c(N)c(N(CCOC)C(=O)CSCc2ccc(C)cc2)c(=O)[nH]c1=O
→ -4.3, -4, 18, -0.1%, -0.4, -17
> COc1ccccc1CCc1nnc(CCC(=O)N(C)Cc2cccc3ncccc23)o1
→ -3.0, 1, -9, 1.7%, -1.2, -16
> O=C(O)CSc1c(-c2ccccc2)c2cc(Cl)ccc2[nH]c1=O
→ -0.9, -6, 13, 1.4%, 0.0, 17
> O=C(Oc1cccc2cccnc12)c1cccc(N2C(=O)C3C4CCC(C4)C3C2=O)c1 (stereo unspecified)
→ 1.1, -87*, -12, -0.5%, -1.0, -8
> CN(CC(=O)Nc1cccc(F)c1)C(=O)/C=C/c1cc(Br)ccc1OC(F)F
→ -6.7, -2, -3, -1.2%, -0.3, -11
> CCOC(CNC(=O)c1cccn2c(=O)c3cc(Cl)ccc3nc12)OCC
→ -1.6, 5, 3, 19%[38.3 µM], 2.3, 1
> CCOC(=O)c1cc(-c2cc3ccccc3o2)nc2c1c(=O)[nH]c(=O)n2CCOC
→ -4.0, 0, 1, -0.1%, 1.9, 7
> CCc1nc(SCC(=O)NCC2CCCO2)c2oc3ccccc3c2n1 (stereo unspecified)
→ -0.1, 7, -9, 2.3%, -0.2, -2
> COc1ccccc1CNC(=O)COc1cc(=O)n(C)c2ccccc12
→ ., ., ., 2.3%, -0.9, -6
> O=C(NNc1cccc(Cl)n1)Nc1ccccc1
→ 2.0, 8, -2, -1.4%, 0.1, 6
> COc1ccccc1CNC(=O)Cn1c(=O)nc(-c2ccccc2F)c2cc(Cl)ccc21
→ ., ., ., 0.2%, 1.0, 10
> COc1ccc(NC(=O)CSc2nnc(-c3ccccc3C)n2N)cc1
→ -3.8, 19, 41, 5.4%[38.3 µM], -0.5, 4
> Cc1ccc2c(c1)[C@@H]1[C@H](CO2)[C@H](c2ccccc2)[C@]2(C)C(=O)N[C@H](C)C(=O)N12
→ -2.9, 0, 2, -0.4%, -1.0, 31
> COc1ccc(C)cc1NC(=O)Cc1c(C(=O)O)n(C)c2ccccc12
→ -4.1, -5, 8, 0.2%, -1.5, -15
> COc1cccc(/C=C(\C#N)c2nc3ccc(C)cc3[nH]2)c1OCC(=O)O
→ -3.5, -3, -5, -1.0%, 1.0, 0
> COC(=O)C1(CCSC)NC(c2ccc(O)cc2)C2C(=O)N(c3ccc(F)cc3)C(=O)C21 (stereo unspecified)
→ -3.9, -9, 2, -1.1%, -0.1, -18
> Cc1ccc(-c2csc(=Nc3cccnc3)n2CCCN2CCCC2=O)cc1C
→ -5.2, -9, -14, -1.4%, 1.9, -6
> Cc1ccc(CSc2nnc(-c3cccc(S(=O)(=O)N4CCOCC4)c3)n2C2CCCC2)cc1
→ 2.6, 5, 2, 13%, 0.1, 59
> COc1ccc(C(=O)Nc2nc(N)n(-c3ccccc3)n2)cc1OC
→ -2.5, -2, 0, -0.6%, -0.4, -24
> COc1ccc(NC(=O)c2c(F)cccc2F)cc1S(=O)(=O)Nc1ccc(Br)cc1
→ 2.5, -5, -2, -0.1%, 0.7, 10
> CCc1ncc(C(O)c2cccc(OC)c2OC)n1C (stereo unspecified)
→ 1.9, 2, 0, -4.8%[38.3 µM], -0.2, 1
> O=C(O)C(CCCCN1C(=O)C2C3C=CC(C3)C2C1=O)N1C(=O)C2C3C=CC(C3)C2C1=O (stereo unspecified)
→ 5.4, 0, 11, -0.3%, -0.2, 18
> O=C(C1CC=CCC1)N1CCN(C(=O)C2CC=CCC2)CC1 (stereo unspecified)
→ -3.0, 6, 3, -0.9%, -0.6, 14
> CN(C)N1C(N)=C(C#N)C(c2ccc3c(c2)OCO3)C2=C1CCCC2=O (stereo unspecified)
→ -1.8, 6, 4, 1.0%, -0.1, ?
> O=C(Cc1ccccc1)NNC(=O)c1ccccc1C(=O)O
→ -5.9, 3, 5, 1.6%, -0.2, 8
> Cc1ccc(NC(=O)COc2ccc(-c3nn(C)c(=O)c4ccccc34)cc2)c(C)c1
→ ., ., ., 0.8%, 1.2, 2
> O=C1CC(N2CCN(c3ccccc3F)CC2)C(=O)N1c1ccc(F)cc1 (stereo unspecified)
→ -2.5, 15, 9, -1.8%, 0.6, -8
> CC(CC(=O)Nc1cc(S(=O)(=O)N2CCOCC2)ccc1OCC(F)(F)F)c1ccccc1 (stereo unspecified)
→ 6.3, -2, 5, -0.4%, -0.6, 23
> CCCn1nc(C(=O)NCc2ccc3c(c2)OCO3)c2ccccc2c1=O
→ 11, 13, 12, 5.0%, 0.2, -3
> Cc1ccc(-c2nc3sc4c(c3c(=O)n2N)CCCC4)cc1
→ -1.1, 0, 8, 2.0%[38.3 µM], 2.0, 21
> O=C(Nc1cnccn1)Nc1ccccc1F
→ -2.8, 1, 8, -1.2%, 1.2, 20
> Cc1cc(C)c(S(=O)(=O)N2CCN(S(=O)(=O)N3CCOCC3)CC2)c(C)c1
→ -3.3, 4, 17, 1.0%, -0.4, 5
> Cc1nc(SCc2cccc(F)c2)c2oc3ccccc3c2n1
→ -5.5, 15, 21, 10%, 0.4, -14
> Cc1nn(C)c(Cl)c1CN1CCC(CO)(CC2CCCCO2)CC1 (stereo unspecified)
→ -0.5, 7, 7, -0.6%, 1.4, -8
> O=C(O)CC1(CC(=O)NCc2ccc(C(F)(F)F)cc2)CCCCC1
→ 1.4, 7, 8, 1.4%, -0.1, 10
> Cc1cccc(C)c1NC(=S)N=Nc1c(O)n(C)c2ccc(S(=O)(=O)N3CCOCC3)cc12
→ -3.9, 1, 13, -2.5%, -0.6, -13
> CC1(C)CC(=O)C(C=Nc2ccc(NC3=C(C#N)C(=O)CC(C)(C)C3)cc2)=C(O)C1
→ -0.8, 9, -14, -1.6%, 0.1, -15
> c1nc(N2CCC3(CC2)OCCO3)c2[nH]cnc2n1
→ -2.1, -2, -7, 1.0%, 0.0, -1
> CCc1ccccc1N(C)C(=O)Cc1c(C(=O)O)c(C)cn1C
→ ., ., ., -0.1%, 1.7, 35
> COc1ccc(/C=C(\C#N)C(=O)NC(C)c2ccccc2)cc1O (stereo unspecified)
→ -0.3, 5, -20, 2.9%, 0.0, 3
> Cc1c(NC2=C(Cl)C(=O)N(c3ccccc3)C2=O)c(=O)n(-c2ccccc2)n1C
→ -2.4, 2, 14, 0.1%, -0.3, 1
> O=C(Cn1cnc(S(=O)(=O)N2CCCC2)c1)Nc1ccc(OC(F)(F)F)cc1
→ 2.4, 5, -4, -0.9%&0.0%, 0.1&-0.9, 1&-17
> Cc1cccc(CN2C(=O)c3ccccc3Sc3ccc(C(=O)NCCN4CCOCC4)cc32)c1
→ -2.7, 6, -2, -0.7%, -0.2, -15
> CC(C)CC(CC(C)C)=NNC(=O)c1ccc2c(c1)OCO2
→ -0.7, 3, 10, 2.9%, -0.1, 2
> N#Cc1c(/N=C/C=C/c2ccccc2)sc2c1CCCC2
→ ?, -29, -24, 3.1%[38.3 µM], 0.5, 2
> CN1C[C@@H]2C[C@@H](c3cccn3-c3nccs3)N3CCC[C@@]23C1=O
→ -5.5, 0, 23, -0.5%, -0.8, 1
> CCN1CCN(C(c2ccccc2Cl)c2c(O)cc(C)n(Cc3ccco3)c2=O)CC1 (stereo unspecified)
→ ., ., ., 0.4%, -0.3, -7
> COc1ccc(-c2nnc(SC)nc2-c2ccc(OC)c([N+](=O)[O-])c2)cc1[N+](=O)[O-]
→ -5.7, -18, -19, -2.3%, -0.1, 14
> Cc1ccc(C(=O)Nc2cccc(NC(=O)c3ccc(C)c([N+](=O)[O-])c3)n2)cc1[N+](=O)[O-]
→ -1.9, 2, -9, 18%, -1.6, -6
> CN(Cc1ccccc1)C1CCCN(C(=O)c2ccc(Cl)s2)C1 (stereo unspecified)
→ -2.7, -13, -2, -1.5%, 1.3, -6
> CCN(CC)C(=O)[C@H]1C[C@H](CC(=O)NCCC2=CCCCC2)C(=O)N2CCc3c([nH]c4cc(CCC(=O)N(C)C)ccc34)[C@]12C
→ 1.2, 0, 0, 0.1%, 0.5, -8

Continued.
Screens in order – D2 ag, Six1-Eya2 blk, CtBP-E1A inh, PINK1 modulator, TRPML1 agonist, TRPML1 blocker
> CCOc1ccc2nc(SCC(=O)NCc3ccccc3)[nH]c2c1
→ 1.1, -6, -3, -0.5%, -0.5, -8
> CCN(CC)CCCn1c2c(c(SCC(=O)Nc3ccc4c(c3)OCO4)nc1=O)CCC2
→ -5.9, 0, -1, -6.5%, 1.0, 12
> Cc1cc(NC(=O)COC(=O)C2CC(=O)N(c3ccc(Br)cc3)C2)no1 (stereo unspecified)
→ 1.8, -1, 4, 5.3%, -0.5, -4
> CCn1c(=S)[nH]c2cc(Cl)ccc21
→ -4.0, 1, -4, 2.9%, 6.4, 1
> O=C(NCCNC(=O)c1ccccn1)c1ccc(Cl)cc1
→ -2.8, -9, -4, 0.7%, -1.7, 6
> COC(OC)c1ccnc(-c2ccc(OC(=O)c3cccs3)cc2)n1
→ 4.0, 6, ., -1.3%, 4.0, 9
> O=C(NCC(O)CN1CCOCC1)c1ccc([N+](=O)[O-])cc1 (stereo unspecified)
→ -4.3, 1, 0, -1.3%, 2.8, -8
> O=C(O)CSC1CC(=O)N(c2ccc(F)cc2)C1=O (stereo unspecified)
→ -2.6, 6, 4, -0.4%, -0.1, 8
> C=CCOc1ccc(CNn2cn[nH]c2=S)cc1
→ -0.4, -2, -4, ?, 5.0, 1
> COc1ccc(CCNC(=O)c2cc(=O)c3cc(C)ccc3o2)cc1
→ -1.8, -14, -6, 5.4%, -0.2, 18
> COc1ccc(NC(=O)c2cc(OC)c(OC)c(OC)c2)cc1S(=O)(=O)N1CCCCC1
→ -0.6, -14, -4, 9.3%, -0.7, 26

Compounds were not picked by outcome; 1% or so of the library scored in one or more.
